Bioassay records (PubChem BioAssay)
UUG fidelity: modulators of yeast start codon fidelity, primary screen, whole organism, S. cerevisiae, single point, plate reader; S. cerevisiae UUG-firefly luciferase reporter, luminescence/redox ratio; activity score, % at 18.7 µM; hit rate 0.13% among 350,000;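 active = replicate mean at a twofold rise or more, about +100% in these data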;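 also: firefly luciferase made from a UUG start codon reports start codon fidelity; reporter light over untreated wells divided by growth signal over untreated wells; some hits fall short of that in this replicate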
PABP FP inh: PABP poly(A) RNA binding inhibitors, primary screen, biochemical, fluorescence polarization, uHTS | Polyadenylate-binding protein 1 (Homo sapiens), P11940 | inhibition, % at 35 µM | hit rate 1% among 290,000 | AID 2014, 2009;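 active = 50% or more with normal probe brightness, or confirmed in later tests; inconclusive = above 50% with abnormal brightness, or retests that disagree; inactive = below 50% or failed in later tests; about a fifth of its hits are not listed in these tables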;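 also: calls also rest on retests at 20 µM and on dose response follow-up; controls were probe without protein and protein plus probe with vehicle; some compounds called inactive have numbers as strong as hits; many hits fall short of the cut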
Target sequence (P11940 whole entry, looked up): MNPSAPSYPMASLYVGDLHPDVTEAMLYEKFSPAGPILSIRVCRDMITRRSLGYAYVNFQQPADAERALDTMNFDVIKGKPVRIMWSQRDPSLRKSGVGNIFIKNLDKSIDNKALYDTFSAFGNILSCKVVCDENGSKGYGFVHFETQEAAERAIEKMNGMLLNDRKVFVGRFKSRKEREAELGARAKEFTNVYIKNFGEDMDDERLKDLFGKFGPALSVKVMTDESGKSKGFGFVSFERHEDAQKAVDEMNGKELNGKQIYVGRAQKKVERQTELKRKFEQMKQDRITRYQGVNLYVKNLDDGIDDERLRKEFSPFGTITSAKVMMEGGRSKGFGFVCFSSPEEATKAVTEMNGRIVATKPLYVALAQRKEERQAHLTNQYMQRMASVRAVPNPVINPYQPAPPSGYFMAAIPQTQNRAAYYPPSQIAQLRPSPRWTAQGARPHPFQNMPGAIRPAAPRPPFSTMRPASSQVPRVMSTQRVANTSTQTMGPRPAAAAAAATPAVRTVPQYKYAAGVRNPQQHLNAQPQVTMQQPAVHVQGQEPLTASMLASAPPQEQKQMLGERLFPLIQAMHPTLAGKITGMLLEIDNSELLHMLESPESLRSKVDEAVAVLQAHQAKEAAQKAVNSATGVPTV
MT1-MMP act inh: blockers of MT1-MMP proenzyme processing, primary screen, HT1080 RFP-PRO-GFP cells, GFP/RFP fluorescence; hit rate 0.061% among 360,000; GFP/RFP ratio change, % at 20 µM; AID 651647, 2012; GFP/RFP ratio fluorescence, overnight; percent of plate control window, DMSO zero;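 active = GFP/RFP ratio change of at least 30% with cell ATP level not reduced by more than half and red fluorescence within 50% of control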; also: strong numbers were not always called active
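Assay system – RFP-PRO-GFP reporter HT1080 cells · Compound dosing – single dose of 20 µM compound, 1% DMSO final · Incubation – overnight compound exposure at 37 °C · Measure – GFP/RFP fluorescence ratio · Benchmarks – DMSO wells and RFP-L50D-GFP cells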
Rce1 inh: yeast Rce1p protease inhibitors, primary screen, biochemical, fluorescence, cell-free homogeneous; CAAX prenyl protease 2 (Saccharomyces cerevisiae (strain ATCC 204508 / S288c)), Q03530; yeast membranes, quenched prenylated peptide cleavage fluorescence; calls only; hit rate 0.27% among 290,000; AID 2563, 2010;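 active = fall in fluorescence gain of 50% or more versus controls, with final raw signal at or below 3038400; inconclusive = same 50% fall but final raw signal above 3038400; inactive = fall in fluorescence gain under 50%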;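 also: plate controls were neutral control wells for no effect and wells lacking membranes for full effect; tested at 10 µM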
Target sequence (Q03530 whole entry, looked up): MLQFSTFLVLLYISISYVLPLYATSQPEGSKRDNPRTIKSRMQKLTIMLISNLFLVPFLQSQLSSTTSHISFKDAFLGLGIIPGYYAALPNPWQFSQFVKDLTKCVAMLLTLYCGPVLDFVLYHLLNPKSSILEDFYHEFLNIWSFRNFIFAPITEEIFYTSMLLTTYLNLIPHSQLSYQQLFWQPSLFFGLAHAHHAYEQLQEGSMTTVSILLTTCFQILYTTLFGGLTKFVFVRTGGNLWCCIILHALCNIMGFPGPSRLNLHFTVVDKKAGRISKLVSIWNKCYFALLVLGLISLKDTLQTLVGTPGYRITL
Env fusion inh: inhibitors of HIV-1 Env-driven cell-cell fusion, primary screen, HeLa-JRFL effector, CEM21 target cells, luciferase; inhibition, % at 12.3 µM; hit rate 1.1% among 360,000;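 active = mean replicate inhibition score of at least 50 and every replicate individually at or above 50; inconclusive = only one of the two criteria met; inactive = mean below 50 and not all replicates reaching 50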;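 also: 0% = plate neutral controls and 100% = maraviroc near 300 nM; one replicate is shown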
CSC inhib: cancer stem cell viability inhibitors, primary screen, luminescence; cancer stem cell-like cells viability; inhibition, % at 7.5 µM; hit rate 1.1% among 300,000;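 active = mean at 75% or more and at least half the replicates too; inconclusive = mean and replicates disagree; tested in HMLE shEcad cells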;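 also: 0% = median of negative and 100% = median of positive control wells; the first replicate is given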
eIF4H FP inh: human eIF4H binding inhibitors, primary screen, translation initiation inhibitor project, biochemical, uHTS, fluorescence polarization; AID 2012, 2009; Eukaryotic translation initiation factor 4H (Homo sapiens), Q15056; inhibition, % at 35 µM; hit rate 0.94% among 290,000; eIF4H fluorescence polarization binding assay;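 active = 50% or more with normal probe brightness, or confirmed in later tests; inconclusive = above 50% with abnormal brightness, or retests that disagree; inactive = below 50% or failed in later tests; about a fifth of its hits are not listed in these tables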;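 also: calls also rest on retests at 20 µM and on dose response follow-up; 0% = protein and probe with vehicle and 100% = probe without protein; strong numbers were not always called active; many hits fall short of the cut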
MT1-MMP act inh RFP: second read-out of MT1-MMP act inh, no call of its own (marks repeat the call); RFP signal change, %; measured here: RFP expression control read;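 0 = vehicle wells; hits needed this value within 50% of zero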
Numbers without * were called inactive; i = inactive; ? = inconclusive; . = no result given; & = joins results of further samples. Not all compounds are listed; count on the stated rates, not on these rows.

SMILES	UUG fidelity	PABP FP inh	MT1-MMP act inh	MT1-MMP act inh RFP	Rce1 inh	Env fusion inh	CSC inhib	eIF4H FP inh
Cc1nnc(NC(=O)CSc2nnc(CNC(=O)c3ccc(S(=O)(=O)N(C)C)cc3)o2)s1	-27	-5	2	4	i	-5	-5	0
CCCCOC(=O)Nc1nnc(CCc2ccccc2)s1	-13	12	3	-7	i	-9	-6	13
CCOC(=O)Cc1nnc(NC(=O)c2cccc(OCC)c2)s1	-4	6	3	0	i	.	-3	0
COc1ccc(OC)c(N(CC(=O)NN=C2CCN(C)CC2)S(=O)(=O)c2ccccc2)c1	-25	5	3	5	i	8	-6	1
O=C(NCC1CCCO1)C1CCCN(Cc2cnn(-c3ccccc3)c2-n2cccc2)C1 (stereo unspecified)	-11	-5	1	2	i	.	-15	-5
CC(=O)N1CCN(C(C)=O)C1c1ccccc1	-12	-6	0	8	i	-2	-12	2
COc1cc([N+](=O)[O-])cc2cc(C(=O)NC(C)(C)C)c(=O)oc12	.	-9	3	-2	i	-7	-13	1
CNC(=O)CSc1nc2c(c(=O)n(C)c(=O)n2C)n1Cc1ccc(C)cc1	3	19	3	5	i	.	1	-4
Cc1cccc(C)c1-n1c(SCC(=O)Nc2ccc(C(=O)O)cc2)nnc1-c1cccc(S(=O)(=O)N(C)C)c1	.	27	-3	1	i	-2	-2	-6
COc1ccc(-c2nn(-c3ccccc3)cc2/C=N/NS(=O)(=O)c2ccccc2)cc1	.	-4	2	-1	i	.	1	4
Cc1cccc(C)c1OCc1nnc(SCC(=O)Nc2nccs2)n1-c1ccccc1	-22	-6	0	0	i	-18	-2	0
CC(NC(=O)Cn1c(NCCO)nc2ccccc21)c1ccccc1 (stereo unspecified)	-5	-11	1	5	i	.	-1	4
O=C(NC(=S)Nc1ccc(S(=O)(=O)N2CCCCCC2)cc1)c1cccs1	-19	2	1	-7	i	-14	6	-2
Cc1nc(C(=O)N2CCCC(N3CCN(c4ccccc4C)CC3)C2)cs1 (stereo unspecified)	-11	-9	2	-1	i	19	-6	5
COc1ccnc(N=CNOCc2cccc(Cl)c2Cl)c1C#N	-5	-10	3	1	i	.	-4	-3
CC(C)(CNC(=O)c1ccc(NS(=O)(=O)c2ccc(F)cc2)cc1)N1CCOCC1	-3	1	-1	1	i	14	21	-2
CN(C)c1cc[n+](CC(=O)c2ccc(OC(F)F)cc2)cc1	0	-6	5	-3	i	-7	-7	-4
COc1ccc(-n2c(CN3CCN(c4ccccc4OC)CC3)nc3ccc([N+](=O)[O-])cc3c2=O)c(OC)c1	11	0	-6	-4	i	5	.	-3
COc1ccc(N(CC(=O)N2CCC(C)CC2)S(=O)(=O)c2c(C)nn(C)c2C)cc1	9	5	1	-2	i	4	-1	-9
O=C(Nc1ccc(S(=O)(=O)N2CCCC2)cc1Cl)C1=COCCO1	-5	-3	1	1	i	.	-15	1

Reprinted from the part before: 3 compounds, followed by the next part.
SMILES	UUG fidelity	PABP FP inh	MT1-MMP act inh	MT1-MMP act inh RFP	Rce1 inh	Env fusion inh	CSC inhib	eIF4H FP inh
COc1ccc(-n2c(CN3CCN(c4ccccc4OC)CC3)nc3ccc([N+](=O)[O-])cc3c2=O)c(OC)c1	11	0	-6	-4	i	5	.	-3
COc1ccc(N(CC(=O)N2CCC(C)CC2)S(=O)(=O)c2c(C)nn(C)c2C)cc1	9	5	1	-2	i	4	-1	-9
O=C(Nc1ccc(S(=O)(=O)N2CCCC2)cc1Cl)C1=COCCO1	-5	-3	1	1	i	.	-15	1
Cc1ccc(-c2cc(C(=O)N/N=C/c3c[nH]c4ccccc34)[nH]n2)cc1	.	-1	4	-11	.	-56	.	-4
Cc1ccc(S(=O)(=O)N(C)C[C@@H]2Oc3ncc(Br)cc3C(=O)N([C@H](C)CO)C[C@H]2C)cc1	13&3&10	.	1	4	.	9	.	.
CCOC(=O)N/N=C(C)/C=C/c1ccccc1	.	-2	0	1	i	-12	-1	-11
O=C(NC1(C(F)(F)F)NC(=O)N(Cc2cccnc2)C1=O)c1ccc(F)cc1 (stereo unspecified)	-19	0	4	-2	i	-35	-9	-2
Cc1ccc(SCCC(=O)Nc2ccc(Br)c(C)c2)cc1	.	-5	-1	4	i	6	27	-5
COC(=O)c1nn(-c2ccccc2)c(Sc2ccc(OC)cc2)c1/C=N/O	-20	-3	-2	-5	i	.	-10	-2
Cc1ccc2c(C)cc(=S)[nH]c2c1	.	0	1	1	i	-16	.	11
COC(=O)[C@H](C)NC(=O)c1cc2c(cn1)[nH]c1ccccc12	-9	3	5	7	i	4	8	4
O=C(c1cccnc1)N1CCN(C(=O)c2cccc(Cl)c2)CC1	-14	-4	-1	1	i	-8	-12	4
CC(=O)OC[C@H]1O[C@@H](Oc2cc3ccc(=O)oc3cc2OC(C)=O)[C@H](OC(C)=O)[C@@H](OC(C)=O)[C@@H]1OC(C)=O	-17	.	2	4	.	-28	.	.
CCCCNc1nc(C)c(C(C)=O)cc1C#N	-14	-3	-1	2	.	2	-11	-6
Cc1noc(C)c1S(=O)(=O)N1CCC(C(=O)N2CCN(C3CCCC3)CC2)CC1	.	-7	.	.	i	.	-17	-4
COC(=O)c1ccc(COC(=O)c2ccc(N(C)C)cc2)cc1	-20	2	-1	-1	.	.	-2	2
O=C(Nc1cccc(S(=O)(=O)NCc2ccco2)c1)c1cccc(Cl)c1	-11	.	4	-5	.	.	-6	.
CC(=O)c1ccc(OCC(=O)Nc2ccc3nc(C)sc3c2)cc1	-13	-4	4	0	i	18	-6	-5
CCOc1cc(/C=N/Nc2nnc(C)n2N)ccc1OC(C)=O	-21	-3	5	7	i	-6	-3	-11
CC(O)[C@H]1CNC(=O)C(=O)N1CC1CCCCC1 (stereo partly specified)	-1	0	1	4	i	7	-7	6
CCCC(=O)NCCc1cc(OC)c(OC)cc1Br	.	6	1	3	i	-1	1	-2
COc1cccc(C(=O)C2CCCN(Cc3cn(CC(N)=O)c4ccccc34)C2)c1 (stereo unspecified)	-8	-7	0	-3	i	-4	5	-11
COc1ccc(C(=O)O)cc1S(=O)(=O)N1CCCc2ccccc21	-9	3	-2	3	i	-28	-16	-2
C=CCOc1c(Br)cc(CNn2cn[nH]c2=S)cc1OC	-22	1	7	1	i	-15	-5	0
COc1ccc(NC(=O)CSc2nnc(-c3ccccc3)n2Cc2ccco2)c(OC)c1	-17	3	5	2	i	.	-9	6
C=CCC1NCCc2c(Br)cccc21 (stereo unspecified)	4	11	-1	3	i	-2	-11	-1
O=C(CSc1nc(=O)n2ccccc2n1)Nc1cccc2ccccc12	-9	.	-4	2	i	?	.	.
CC(C)(CC(=O)O)CC(=O)O	-18	9	0	3	i	-49	-9	-6
COc1ccc(C(=O)OC(C(=O)c2ccccc2)c2ccccc2)cc1 (stereo unspecified)	-16	1	-3	-5	i	2	-5	-11
COc1ccc(NC(=O)CN2C(=O)C(C)Oc3ccccc32)cc1 (stereo unspecified)	-4	-15	6	4	i	-38	-10	2
O=C(CCCC(=O)c1ccccc1)NCCc1ccccc1	-11	-3	-2	3	i	17	1	-6
CCc1ccc(CN2CCC(n3nccc3NC(=O)c3ccccc3C)CC2)cc1	-12	12	5	-1	i	-8	11	-7
OC(c1ccc(-c2ccccc2)cc1)c1ncc(-c2ccc(F)cc2)[nH]1 (stereo unspecified)	-13	.	6	-1	.	15	.	.
CCN(CC)CCN(C(=O)C1=COCCO1)c1nc2c(OC)ccc(OC)c2s1	2	-4	2	6	i	.	-2	-7
Cc1ccc(S(=O)(=O)n2cnc3cc([N+](=O)[O-])ccc32)cc1C	-18	6	3	3	i	6	6	-9
Cc1ccc(S(=O)(=O)/N=S(\C)C(C)C)cc1 (stereo unspecified)	.	8	-1	4	i	.	-6	7
N#CCCN(CCC#N)c1nncs1	-7	-7	3	5	i	.	7	-10
O=C(CCS(=O)(=O)c1ccc2c(c1)NC(=O)CS2)NCCc1ccc(Cl)cc1	0	7	1	2	i	-4	-10	13
Cc1cc(C)c(C#N)c(SCCS(=O)(=O)c2ccc(C(C)(C)C)cc2)n1	-13	2	-4	-9	i	.	9	-10
CCCCN1CCc2c1nc1ccc(Br)cc1c2N	-19	6	2	0	i	.	.	-12
Oc1ccc(Br)cc1-c1cc(-c2ccc(Cl)cc2)n[nH]1	.	-7	-3	-7	i	.	53	4
CCC(=O)Nc1ccc(N2CCCCC2)c(C(=O)Nc2ccccc2C)c1	-17	13	3	-1	i	-3	.	4
Cc1cccc(C(=O)NC2C(=O)NNC2c2ccc(Cl)cc2)c1 (stereo unspecified)	.	-1	1	5	i	-13	-10	6
CCN(C(=O)COC(=O)Cn1cnc2c1c(=O)n(C)c(=O)n2C)C1CCS(=O)(=O)C1 (stereo unspecified)	-10	1	2	4	i	.	-1	-7
Cc1ccc(-c2csc3nc4cc(C(=O)NC5CCC(O)CC5)ccc4c(=O)n23)cc1 (stereo unspecified)	51	19	0	-2	i	-6	6	18
CCOC(=O)C1(C)CCCCN1C(=O)c1ccoc1 (stereo unspecified)	-10	.	0	4	.	14	.	.
COc1ccc(-n2nc3c(c2NC(=O)C2CC(=O)N(c4ccccc4)C2)CS(=O)(=O)C3)cc1 (stereo unspecified)	-12	6	-1	-2	i	-4	-8	-2
Cc1ccc(N=C2NC(=O)/C(=C/c3cccn3C)S2)c(C)c1	.	-16	1	-3	i	-3	7	-6
O=C(Oc1ccc(F)cc1)c1ccc2c(=O)n3c(nc2c1)CCC3	.	.	4	2	i	-8	-4	.
O=S(=O)(NC1=NCCCCC1)c1ccccc1Cl	446*	3	1	3	i	-5	-27	-4
Cc1cn([C@H]2C[C@H](O)[C@@H](CCC(=O)NCc3cccc4ccccc34)O2)c(=O)[nH]c1=O	-8	.	1	3	.	-40	.	.
CCOc1ccc(CCNC(=O)c2nccnc2C(=O)O)cc1OCC	-10	16	0	0	i	8	-18	1
CS(=O)(=O)N1N=C(c2ccc(Br)cc2)CC1c1cccs1 (stereo unspecified)	-6	1	-1	1	i	.	-11	2
O=C(O)c1ccc2c(c1)C(=O)N(C(Cc1ccccc1)C(=O)O)C2=O (stereo unspecified)	.	4	4	1	i	.	-7	1
Nc1cc2ccncc2c2ccccc12	-12	1	-19	-9	?	62*	-12	24
C=C(C)C1CC=C(C)/C(=N\NC(=O)CCC(=O)Nc2ccc(C)c(C)c2)C1 (stereo unspecified)	-3	-9	0	-5	i	17	.	-3
CC(Sc1nnc(-c2ccccc2F)o1)C(=O)Nc1ccc(N2CCOCC2)cc1 (stereo unspecified)	-9	.	2	1	.	-33	.	.
Cn1cc(C(=O)c2ccccc2)cc1-c1nc2ccccc2n1C	-23	1	-8	-10	i	.	-3	-4
COc1ccccc1N(C)S(=O)(=O)c1ccc(C(=O)OCC(=O)NCC(F)(F)F)cc1	.	5	-2	-1	i	2	7	1
Cc1cc(NC(=O)c2ccccc2F)nc2c1c(=O)oc1ccccc12	-8	-8	1	6	i	-9	-8	0
CCC(C)(C)n1nnnc1CN1CCC(NC(=O)c2ccc(Br)cc2)CC1	-16	28	4	-4	i	.	-7	1
O=C(C[n+]1cccc(CNC(=O)c2ccc(OC(F)F)cc2)c1)Nc1ccc(F)cc1	.	8	0	0	i	-38	-1	1
